# NPYLR7 agonist: agonists of mosquito NPYLR7 receptor, primary screen, cell-based, Aedes aegypti, calcium fluorescence, mosquito biting behavior; HEK293T NPYLR7/Galpha15, GCaMP6s calcium fluorescence; Aedes aegypti neuropeptide Y-like receptor 7 (NPYLR7); 0.15% of 270,000 active; activation, % at 10 µM; in the data active = activation above about 40%;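 also: 0% = vehicle and 100% = reference agonist at the receptor; some compounds past the cut are filed as inactive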
# NPYLR7 agonist max-min: further read-out of NPYLR7 agonist, marked with its call; activation, %; measured here: Max-Min RFU normalised activation; some inactives read as strong as hits;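 span of the calcium signal over five minutes; 0% = vehicle and 100% = native peptide agonist; compound fluorescence can raise it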
# Active calls of the source: *; & = joins results of further samples. Some of the compounds tested (hit frequency here may not be typical).
# A first look:
Molecule	NPYLR7 agonist	NPYLR7 agonist max-min
CC1=C(C(=O)OCCC(C)C)C(c2ccc(Cl)cc2)NC(=O)N1 (stereo unspecified)	-6	-9
COc1ccc(NC(=O)N2CCCCC2c2ccc(C(F)(F)F)cc2)cc1 (stereo unspecified)	-8	-7
CCN(CC)c1onc(-c2ccccc2)c1CN(Cc1ccccc1)C(=O)c1cccc(OC)c1	4	5
O=S(=O)(Cc1ncc(-c2cccs2)o1)c1cccc(Cl)c1	-2	-4

# All compounds of this part, from the start:
Molecule	NPYLR7 agonist	NPYLR7 agonist max-min
CC1=C(C(=O)OCCC(C)C)C(c2ccc(Cl)cc2)NC(=O)N1 (stereo unspecified)	-6	-9
COc1ccc(NC(=O)N2CCCCC2c2ccc(C(F)(F)F)cc2)cc1 (stereo unspecified)	-8	-7
CCN(CC)c1onc(-c2ccccc2)c1CN(Cc1ccccc1)C(=O)c1cccc(OC)c1	4	5
O=S(=O)(Cc1ncc(-c2cccs2)o1)c1cccc(Cl)c1	-2	-4
Cc1[nH]c(=O)c(C#N)c(C)c1CCC(=O)Nc1ccnn1Cc1ccc(Cl)cc1Cl	2	2
Cc1cc(S(=O)(=O)NCc2ccc3c(c2)OCO3)ccc1Cl	2	-3
COCCCNCC(=O)N1CCc2sccc2C1c1ccc(OC)cc1 (stereo unspecified)	-6	4
NS(=O)(=O)c1ccc(NC(=O)c2cc3cc(Cl)ccc3oc2=O)cc1	1	7
C=CC[n+]1cccnc1N	-6	-12
CCOC(=O)c1nn(-c2ccc(C)cc2)c(=O)cc1OS(=O)(=O)c1ccc(Cl)s1	13	5
COc1ccc(S(=O)(=O)n2ccc(C)n2)cc1C	-11	-15
O=C1OCCC1Sc1nc2sc3c(c2c(=O)[nH]1)CCC3 (stereo unspecified)	0	-2
CCNC(=O)N1CCN(c2cc(Oc3cccc(F)c3)ncn2)CC1C (stereo unspecified)	-8	6
CSc1ccccc1C(=O)N1CCC(n2c(C)nc3cc(C(F)(F)F)ccc32)CC1	3	0
COc1cn(CC(=O)Nc2ccccc2)c(CSc2nnc(C)s2)cc1=O	-8	-12

# Complete entries, quoted from the list. Order of values: NPYLR7 agonist, NPYLR7 agonist max-min
# `CC1=C(C(=O)OCCC(C)C)C(c2ccc(Cl)cc2)NC(=O)N1` (stereo unspecified) reads -6, -9
# `CCN(CC)c1onc(-c2ccccc2)c1CN(Cc1ccccc1)C(=O)c1cccc(OC)c1` reads 4, 5
# `O=C1OCCC1Sc1nc2sc3c(c2c(=O)[nH]1)CCC3` (stereo unspecified) reads 0, -2
# `NS(=O)(=O)c1ccc(NC(=O)c2cc3cc(Cl)ccc3oc2=O)cc1` reads 1, 7
# `Cc1cc(S(=O)(=O)NCc2ccc3c(c2)OCO3)ccc1Cl` reads 2, -3

# Continuation:
Molecule	NPYLR7 agonist	NPYLR7 agonist max-min
CCOC(=O)C1CCCN(C(=O)CC(c2ccc3c(c2)OCO3)c2cn(C)c3ccccc23)C1 (stereo unspecified)	32	26
O=C(OCc1cc(-c2ccco2)on1)c1c[nH]c2ccccc12	-2	-5
C/C(=N/n1nnnc1Nc1ccccc1)c1cccs1	4	5
CC(Cl)C(=O)Nc1nnc(SCCc2ccccc2)s1 (stereo unspecified)	-3	6
COc1ccc(-c2nc3cc(C)ccn3c2NCc2ccccc2)cc1OC	-6	0
COC(=O)C(C)Sc1ccc2nnc(CCNS(=O)(=O)c3ccc(C)cc3)n2n1 (stereo unspecified)	-22	-23
CC(NC(=O)N(C)CC1CCN(C)C1)c1csc2ccccc12 (stereo unspecified)	-21	-23
COc1ccc(NCc2cc(OC)c3c(c2)OCCO3)cn1	3	2
Cc1ccc(S(=O)(=O)N(C(=O)c2ccncc2)c2ccc3oc(=O)sc3c2)cc1	-1	10
N#CC1C(=N)OC2=C(C(=O)CCC2)C1c1ccc(Cl)cc1 (stereo unspecified)	-10	-18
NC1=NC(c2c(Cl)cccc2Cl)n2c(nc3ccccc32)N1 (stereo unspecified)	6	8
COc1ccc(OCc2nc(CSc3nncn3C)cs2)cc1	3	11
Cc1cccc(NC(=O)CSc2nc(=O)n(CCCN(C)C)c3c2CCC3)c1	7	5
Cc1cc(C)nc(NS(=O)(=O)c2ccc(NC(=O)c3cc([N+](=O)[O-])cc([N+](=O)[O-])c3)cc2)n1	-11	-14
COc1ccc(S(=O)(=O)Oc2cc(CN(CCN(C)C)C(=O)c3cccs3)ccc2OC)cc1	2	8

# Further entries:
Molecule	NPYLR7 agonist	NPYLR7 agonist max-min
CCOC(=O)C(=O)C1(C(=O)OCC)Oc2cc(OC)cc(OC)c2C(=O)C1c1ccccc1 (stereo unspecified)	-9	-14
CC(=O)c1ccc2c3c(cccc13)C(=O)N(c1ccccc1)C2=O	2	3
O=c1oc2ccc([N+](=O)[O-])cc2cc1-c1csc(Nc2ccccc2Cl)n1	-11	-15
Cc1ccccc1N1CCN(C(=O)c2c(C)c(C)c(C)n2Cc2ccccc2F)CC1	18	23
COc1ccc(C(CO)N(C)CC(=O)N2CCCCCCC2)cc1 (stereo unspecified)	2	0
Fc1c(F)c(N2CCCCC2)c(F)c(F)c1C=CCN1CCOCC1	-2	-3
Cc1cccc(NC(=O)C(NC(=O)C2CCC(C)CC2)C(C)C)n1 (stereo unspecified)	-5	-6
CCCCc1ccc(C(=O)Nc2ccc(C3SCC(=O)N3c3ccccc3)cc2)cc1 (stereo unspecified)	8	14
c1ccc(-n2cccn2)c(CNC2CCC3(CCNCC3)CC2)c1	-15	-16
CC1CN(C(=O)C23CC4CC(CC(O)(C4)C2)C3)CCO1 (stereo unspecified)	2	-7
CNC(=O)[C@H]1CN(C(=O)Cc2cccs2)[C@]2(C)C(=O)N(CCO)c3ccccc3[C@H]12	14	25
C=CCNc1nc2cc(-c3ccccc3C)sc2c(=O)n1C	0	0
CN(C)C(=O)N1CCC(C(=O)NC(C#N)c2ccccc2F)CC1 (stereo unspecified)	4	2
O=C(O)c1cc(F)cc2[nH]c(CCl)nc12	-2	-3
O=C(NC1CCN(CC(F)(F)F)C1=O)c1cc(-c2ccccc2)cc(Cl)c1O (stereo unspecified)	-1	-2

# The results go on:
Molecule	NPYLR7 agonist	NPYLR7 agonist max-min
CCCN1CCC(C)(C(=O)Nc2cccc3c2CCCC3)C1 (stereo unspecified)	0	-2
CCOC(=O)C1(Cc2cccc(Cl)c2)CCCN(Cc2cccn2-c2ncccn2)C1 (stereo unspecified)	12	14
Cn1nccc1CNC(=O)NCCCC(=O)N1Cc2ccccc2C1	10	7
CCN(CC)S(=O)(=O)c1ccc(=O)n(CC(=O)Nc2nnc(C3CC3)s2)c1	3	8
Cc1cc(C(=O)NC2CCCCC2)ccc1NC(=O)c1ccn(C)c(=O)c1	20	14
Cc1ccccc1-c1nc(CN2CCC(O)(Cn3ccnc3)CC2)c(C)o1	-3	-7
CC(CNC1CCCCC1)([N+](=O)[O-])[N+](=O)[O-]	2	5
CCn1cnc2cc(-c3ccc(Cl)cc3)sc2c1=O	12	6
CCOC(CNC(=O)c1cn(Cc2ccccc2)cc2c(=O)n(-c3ccccc3)nc1-2)OCC	6	3
Cc1[nH]c2c(F)cccc2c1CC(=O)N(C)CCc1noc(C(C)C)n1	13	8
CCCC(O)c1nnc(Nc2cccc(OC(F)(F)F)c2)s1 (stereo unspecified)	4	4
COc1ccc(-n2c(SCc3ccc(C)cc3)nc3c(c2=O)SCC3)cc1OC	-3	-7
Cc1ncsc1CN(Cc1ccccc1)C1CCNCC1	0	-5
COCc1nc(OC)c2c(C)c(C(=O)O)sc2n1	-5&1	-6&4
CCC(CC(C)CO)Nc1ccc(Br)cn1 (stereo unspecified)	1	0

# New compounds follow.
# Results follow in this order: NPYLR7 agonist	NPYLR7 agonist max-min
- CCOC(=O)c1ccc(NC(=O)CC2Sc3ncnn3C2=O)cc1 (stereo unspecified)
 : -4	3
- O=C(NCN1CCN(CCO)CC1)c1cnccn1
 : 5	2
- CCc1nn2c(=O)cc(CSc3nnnn3C3CC3)nc2s1
 : 4	11
- O=C(Cc1c[nH]c2ccccc12)NN1C(=O)c2ccccc2C1=O
 : -8	-11
- O=c1c(-c2ccco2)[n+]([O-])c2ccccc2n1OCc1ccc(Oc2ccccc2)cc1
 : -11	-17
- COc1cn(CC(=O)NCc2ccco2)c(CSc2nc(C)cc(C)n2)cc1=O
 : -2	-10
- CCOP(=O)(CCCCNC(=O)C=Cc1cc(Br)ccc1OC)OCC
 : -8	-11
- Cn1c(-c2ccccc2)nn(CCNC(=O)C2CC2)c1=O
 : 7	4
- CCc1nc(CNC(=O)C2CCC(=O)N(CCN3CCOCC3)C2)cs1 (stereo unspecified)
 : 5&3	5&1
- CCCCC(CC)C(=O)Nc1c(-c2cccc(OC)c2)nc2ccccn12 (stereo unspecified)
 : -11	-2
- Cc1cn2c3c(=O)[nH]c(=O)n(C)c3nc2n1-c1ccc(N(C)C)cc1
 : -1	-5
- COc1ccc(NC(=O)c2cccc(CN3C[C@@H](C)O[C@@H](C)C3)c2)cc1
 : 3	0
- CS(=O)(=O)c1ccc(-c2cc(NCCO)nc3[nH]ccc23)cc1
 : 27	10
- N#Cc1cccc(NC(=O)N2CCN(c3nc(Cc4ccccc4)ns3)CC2)c1
 : -6	1
- COc1cccc(-c2cccc(-c3ccc(NC(=O)CCc4ccccc4)cc3)n2)c1
 : -2	0
- COCC(=O)Nc1ccc(N(C)C)c(CN(Cc2ccco2)C(=O)c2ccco2)c1
 : 1	19
- Cc1ccc(Sc2c(N)c3c(c(N)c2Sc2ccc(C)cc2)C(=O)c2ccccc2C3=O)cc1
 : -4	-9
- CC(=O)c1cc(C(=O)NCCC(O)(c2nccn2C)C(F)(F)F)n(C)c1 (stereo unspecified)
 : 2	1
- Cc1nn(C)c2ncc(C(=O)N3CCCN(c4nc5ccccc5nc4-c4ccccc4)CC3)c(Cl)c12
 : 5	-2
- Cc1nc2c(OCc3ccc(C(F)(F)F)cc3)cccn2c1N(C)CC1CC1
 : 9	2

# New compounds follow
# Results follow in this order: NPYLR7 agonist	NPYLR7 agonist max-min
- Cc1nccn1-c1ccccc1CNC(C)Cn1ccnc1 (stereo unspecified)
 : 8	-3
- Cc1ccc(NC2=NC3(N=C(N)N2)C(=O)N(C)c2ccccc23)cc1 (stereo unspecified)
 : -3	-2
- COc1ccc(CCN2CCCC(CN(C)Cc3cccc4c3OCO4)C2)cc1 (stereo unspecified)
 : 4	2
- Cc1ccc(-n2ncc3c(=O)n(NC(=O)CCC4CCCCC4)cnc32)cc1
 : 26	21
- CC(C(=O)NCC1CCCO1)N1CCc2nn(C(C)C)c(=O)cc2C1 (stereo unspecified)
 : 13	10
- Cc1ccc(F)c(Oc2cc(N3CCN(C(=O)c4ccc(Cl)cc4Cl)CC3)ncn2)c1
 : -1	7
- COCCOC(=NCCN(C)C)NC(=O)c1ccc2c(c1)OCO2
 : 5	8
- Cc1cccc(C2SCC(=O)N2CC(=O)N2CCOCC2)c1 (stereo unspecified)
 : 9	12
- CC(C)(C)c1ccc(NC(=O)NCCn2ncccc2=O)cc1
 : -13	-20
- Oc1c(N=Nc2nc3ccccc3[nH]2)c2cccc3c2n1CCC3
 : -1	-7
- CCOC(=O)c1cc(-c2ccc(OC)cc2)n(C2CCN(C(=O)c3c(-c4ccccc4Cl)noc3C)CC2)n1
 : 3	3
- CCc1nc2ccc(C(=O)Nc3ccc(NC(C)=O)cc3)cn2c1N(CC)CCOC
 : -5	-9
- CCCCN(C)S(=O)(=O)NCC1CCS(=O)(=O)C1 (stereo unspecified)
 : -20	-19
- COCCN1CCCC(O)(CN2CCN(Cc3nccn3C)CC2)C1=O (stereo unspecified)
 : 23	9
- CC1=CC[C@@H]2CN(C(=O)CSc3nnnn3C)C[C@@H]2C1
 : -1	-3
- CCOC(=O)N[C@H]1C[C@@H](C(=O)NCCc2cccc(Cl)c2)N(C)C1
 : -1	-8
- O=C(Nc1ncc(Cc2c(Cl)cccc2Cl)s1)c1cccnc1
 : 4	6
- N#CCN(N=Nc1ccccc1)c1ccccc1
 : 17	17
- COc1ccc(CC2CCN(C(=O)Nc3ccc(C)cc3)CC2)cc1
 : 2	-1
- Cn1ccnc1-c1ccc(N2CCc3onc(-c4ccccc4F)c3C2)nn1
 : 16	5

# Further results.
# Results follow in this order: NPYLR7 agonist	NPYLR7 agonist max-min
- Cc1cc(C(=O)N(Cc2cccnc2)c2nc3ccc(Cl)cc3s2)on1
 : 2	2
- COc1ccc(-n2c(CCC(=O)N3CCc4ccccc4C3)ccc2-c2ccc(Cl)cc2)cc1
 : -3	5
- CC(=O)C(C)Oc1ccc2c(-c3ccccc3)cc(=O)oc2c1 (stereo unspecified)
 : -6	-10
- CCOC(=O)C(C)Nc1ccc(CC(=O)N(C)C)cc1 (stereo unspecified)
 : -6	-6
- O=c1cc(CN2CCN(S(=O)(=O)c3ccc(C(F)(F)F)cc3Cl)CC2)occ1OCc1cccc(F)c1
 : 25	17
- NC(=O)NC(=O)CSC1CCCC1
 : 26	16
- COc1ccc(-n2nc(-c3ccccc3)cc2NC(=O)CN(C(C)C)S(=O)(=O)c2ccc(C(C)(C)C)cc2)cc1
 : -12	-6
- CC(C)(C)C(=O)NCCC(=O)OC1CCCS(=O)(=O)C1 (stereo unspecified)
 : 1	1
- COc1cc(C=C2N=C(c3cc(C)cc(C)c3)OC2=O)cc(Cl)c1OCC(N)=O
 : -5	-10
- CC1CCN(C(=O)CCc2nc(-c3ncn[nH]3)no2)C2CCCCC12 (stereo unspecified)
 : 0	-1
- CC(=O)N[C@@H]1C[C@H](Cc2ccccc2)O[C@H](c2cc(C)cc(F)c2)C1
 : -3	-6
- Cc1ccc(-n2nnc3c(N4CCN(C(=O)CCC5CCCC5)CC4)ncnc32)cc1
 : 0	-13
- NC1=NC(=O)C(=Cc2ccc3c(c2)OCO3)S1
 : 1	-8
- O=c1cc(CNc2ccc(Br)c(C(F)(F)F)c2)nc2sccn12
 : 1	-6
- CC1(C)O[C@@H]2C[C@@](OCc3cccc(F)c3)(C(=O)NCC3CCCO3)CC(OCc3cccc(Cl)c3)[C@@H]2O1 (stereo partly specified)
 : 10	15
- c1cc(-c2noc(CC3CCCCC3)n2)ccn1
 : 7	7

# From PubChem
